BasE inh: BasE siderophore biosynthesis inhibition. purified BasE, fluorescence polarization binding displacement. inhibition, % (test concentration not listed). 84,000 tested, 0.1% active;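 active = both replicates above 25% with normal brightness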;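 also: 0% = negative plate control signal and 100% = positive plate control signal; stock transfer was 100 nL into about 30 µL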
LANA-nucl inh: inhibitors of KSHV LANA binding to nucleosomes | 51,000 tested, 0.3% active | z-score (no concentration beside the values) | FITC-LANA1-23 / chicken nucleosome fluorescence polarization; active compounds read low;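 active = both repeat wells score below -2 in polarization z-score versus plate sample wells, excluding overly bright wells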;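 also: 100 nL library stock added to about 30 µL; numbers are from one replicate; some results filed as inactive read as strong as hits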
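test system = FITC-LANA peptide and chicken nucleosomes | amount = 240 nM purified chicken nucleosomes (480 nM peptide binding sites), final | reagent = 50 nM FITC-LANA1-23 probe | medium = TEN-BT buffer, pH 7.5 | doses = single compound addition by pin transfer, 100 nL per well | timing = 10–45 min, room temperature | detection = fluorescence polarization | repeats = duplicate plates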
Active calls of the source: *; / = not tested or not shown; & = joins results of further samples.

SMILES	BasE inh	LANA-nucl inh
CC1CCc2c(sc(NC(=O)COC(=O)Cn3cnc4c3c(=O)n(C)c(=O)n4C)c2C#N)C1 (configuration not stated)	-1.0	/
O=C(C1=NNCC1c1ccccc1)c1ccccc1 (configuration not stated)	2.1	/
O=C(O)c1ccccc1N=Nc1c(O)[nH]c2ccccc12	8.4	/
COc1cc2sc(C)nc2c2ccccc12	1.1	/
CC1CC(=O)C2=C(C1)Nc1ccccc1NC2c1ccccc1 (configuration not stated)	2.3	-0.305
c1ccc(-c2noc3c2CNCC3)cc1	-0.5	1.01
Cc1cccc(CCNS(=O)(=O)c2cc3c(cc2C)NC(=O)CO3)c1	3.3	-0.664
COc1ccc(OC)c(NS(=O)(=O)c2ccc(NC(=O)c3ccco3)cc2)c1	-3.1	0.15
COc1ccc(C/C(N)=N/O)cc1OC	-2.5	-0.604
c1ccc2oc(-c3nn4c(Cn5nnc6ccccc65)nnc4s3)cc2c1	1.9	0.601
CSc1nc(COc2ccc(C(C)(C)C)cc2)nc(-n2cccc2)c1C#N	-4.2	/
NC(=O)CSc1nc2ccccc2s1	1.8	/
C=CCSc1nnc(NC(=O)Cc2coc3c(C)c(C)ccc23)s1	-1.0	-0.339
O=C1SCCC1NS(=O)(=O)c1ccccc1 (configuration not stated)	3.1	/
CSc1ccc(S(=O)(=O)N2CCOCC2)cc1	0.6	-1.39
COc1ccc(CNC(=O)C(C)On2nnc3ccccc32)cc1 (configuration not stated)	2.4	/
COc1ccc(-c2n[nH]c(=O)[nH]2)cc1	-1.5	1.78
CC1=NOC(=O)/C1=C/c1ccc(-c2ccccc2)o1	1.2	/
COc1ccccc1C(=O)Nn1cnc2ccccc2c1=O	-1.3	0.228
Cc1ccc(N2CCN(/N=C/C3=C(N4CCOCC4)C(=C\c4ccccc4)/CC3)CC2)cc1	0.3	/
CCCC(CCC)C(=O)Nc1c2c(nc3c1CCC3)CCCC2	1.5	-0.131
c1ccc(-c2nnc(-c3cccnc3)o2)cc1	1.5	/
CSc1ncc2c(=O)n(C(C)C)ccc2n1	-0.9	0.425
Cc1ccc(Oc2ccccc2NC(=O)CN2CSCC2=O)cc1	1.2	/
CC(C)(C)C(=O)NC1CCN(CC(=O)Nc2ccccc2)CC1	1.8	0.518
N/C(=N\O)c1ccccn1	-1.0	-0.208
Cc1sc(-n2cccc2)c(C(=O)NC2CCCCCC2)c1C	2.8	/
Cc1cc(NC(=O)Cn2c(COc3ccc4ccccc4c3)nc3ccccc32)no1	-0.9	/
O=C(COC(=O)c1ccc2c(=O)n3c(nc2c1)CCCCC3)c1ccc(S(=O)(=O)N2CCCCC2)cc1	1.3	/
CCOC(=O)N1CCN(C(=O)C2CC(=O)N(c3ccccc3)C2)CC1 (configuration not stated)	1.1	-0.0405
Cc1noc(C)c1CSc1ccccc1C(=O)Nc1ccccc1N1CCCC1	2.3	/
CCOC(=O)c1ccc2nc(CCC(=O)O)c(=O)n(CC)c2c1	2.2	/
O=C(NCC(=O)c1cccs1)c1ccc(CSc2ccccc2)o1	3.5	-0.833
CC(C)(C)c1ccc(C(=O)OCc2ccc3c(c2)OCO3)s1	2.5	/
C=CC[C@@H]1/C=C(\C)C[C@H](C)C[C@H](OC)[C@H]2O[C@@](O)(C(=O)C(=O)N3CCCC[C@H]3C(=O)O[C@H](/C(C)=C/[C@@H]3CC[C@@H](O)[C@H](OC)C3)[C@H](C)[C@@H](O)CC1=O)[C@H](C)C[C@@H]2OC	-2.4	-0.412&0.23
CCN=c1scc(-c2ccc3c(c2)NC(=O)CO3)n1N=C1CCCC1	-5.1	/
O=c1oc2ccccc2n1CC1CCCN1S(=O)(=O)c1ccc(-n2cnnn2)cc1 (configuration not stated)	0.2	-1.18
O=C(c1c(F)c(F)c(F)c(F)c1F)N(CCO)Cc1ccccc1	-2.2	0.106
CN1N=C2c3ccccc3CCC2C1c1cccs1 (configuration not stated)	-1.8	1.32
CN1CCC(=NN=C(c2ccccc2)c2ccccc2)CC1	-0.5	/
CNc1c(C(=O)c2ccc(F)cc2)sc(N)c1C#N	2.6	0.649
Cc1ccc(C(=O)N(C)CCC#N)cc1C	-4.6	1.48
CN(Cc1ccccc1)Cc1c(F)cccc1F	-1.3	-0.952
COc1cc(CCC(=O)OCC(=O)N2CC(=O)Nc3ccccc32)cc(OC)c1OC	-0.8	/
CC1=CC(c2ccc(Cl)cc2)n2nc(NC(=O)CCCC(=O)O)nc2N1 (configuration not stated)	2.5	/
Cc1ccc(CN2CCC(CNS(=O)(=O)c3ccc4c(c3)CCCC(=O)N4)C2)cc1 (configuration not stated)	-1.5	/
O=C(O)CCC(=O)N1CCC(c2ccccc2)=N1	3.7	/
CCCCn1c(Br)nc2c1c(=O)[nH]c(=O)n2C	1.1	/
Cc1ccc(CN2CCN(/N=C/C=C/c3ccco3)CC2)cc1	0.2	/
Cc1ccc(OCCn2c(N)nc3ccccc32)cc1	7.1	/
S=C(NCC1CCCCC1)Nc1cccnc1	1.9	-1.18
O=C(Nc1ccc(Cl)cn1)C1(F)C(F)(F)C(F)(F)C(F)(F)C(F)(F)C1(F)F	-1.2	0.515
CCOc1ccc(C2(CC(=O)Nc3ccccc3)C(=O)c3ccccc3C2=O)cc1OC	2.5	/
CC(=O)Nc1c2c(nn1-c1ccc(C)cc1)CSC2	1.3	-1.12
CCCNS(=O)(=O)c1ccc(OCC(=O)NCc2ccco2)cc1	-2.4	0.0825
CCCCN(CC)S(=O)(=O)c1ccc(C(=O)N=c2sc(C(=O)OCC)c(C)n2C)cc1	1.6	0.0445
COc1ccccc1NS(=O)(=O)c1ccc(C(=O)N2CCN(c3ccccn3)CC2)cc1	1.9	/
Cc1ccc(NC(=O)COc2ccc(Cl)cc2)cc1N(C)C	0.2	0.362
OC(CCN1CCCCC1)(c1ccccc1)C1CC2C=CC1C2 (configuration not stated)	-0.7	0.0665&0.858
CCCS(=O)(=O)c1nc2ccccc2n1Cc1cc(C)ccc1C	1.6	0.17

Further entries follow:
SMILES	BasE inh	LANA-nucl inh
CCCc1nc(C)cc(N2CCCC2)n1	3.5	-0.119
CC1=NOC(=O)/C1=C\c1ccc(O)c(O)c1	0.1	/
CCOC(=O)/C=C1\SC(C)C(=O)N1CC(=O)c1ccc(Br)cc1 (configuration not stated)	0.8	/
CCN(CC)c1ccc(NC(=O)c2ccc(OC)c(OC)c2)cc1	-1.5	0.682
NC(=O)c1cn(-c2ccccc2)nc1N	2.2	/
FC(F)(F)c1ccnc(Oc2ccc(C3=NCCS3)cc2)c1	3.6	/
CCSc1nc2sc3c(c2c(=O)n1-c1ccc(OC)cc1)CC(C(C)C)OC3 (configuration not stated)	0.0	/
CN(C(=O)c1cnn2c(C(F)F)cc(-c3ccccc3)nc12)C1CCCCC1	1.0	-1.04
COC(=O)c1ccc(S(=O)(=O)N2CCN(c3ccc(C(F)(F)F)cn3)CC2)n1C	-1.6	/
Cc1ccsc1C(N)=S	5.5	/
O=C(Cn1ccc(C(F)(F)F)n1)NC1CCCc2ccccc21 (configuration not stated)	2.1	/
CN(CCNC(=O)c1cc2c(s1)CS(=O)(=O)C2)C1CCCCC1	-0.5	2.63
Cc1n[nH]c(=S)n1/N=C\c1ccco1	0.3	/
O=C1NC2(C(=O)O)CCC(=O)N2c2ccccc21 (configuration not stated)	-0.1	/
Cc1ccc2nc(Nc3ccc(F)cc3C)c3nncn3c2c1	1.5	-0.157
CCn1c(=O)cc(SCC(=O)NCCCN2CCOCC2)c2ccccc21	0.9	-0.393
CC(C)=NNC(=O)C1COc2ccccc2O1 (configuration not stated)	4.0	/
Cc1cc(NC(=O)Cn2c(NCc3ccccc3)nc3ccccc32)no1	1.1	/
O=C(c1ccccc1F)N(Cc1cccs1)c1ccc(O)cc1	-0.1	-0.83
Cc1ccc(NCc2nnc(SCC(=O)N3c4ccccc4CCc4ccccc43)o2)c(C)c1	1.1	-0.476
COc1ccccc1OCC(=O)NCCCN1CCOCC1	2.9	-0.726
S=c1nc(NC2CC2)c2ccccc2[nH]1	0.3	/
CNc1c(NS(=O)(=O)c2ccc(OC)cc2)c(=O)oc2ccccc12	2.8	-0.206
O=c1[nH]cnc2sc3c(c12)CCSC3	-2.5	/
O=C(NCc1ccc2c(c1)CCO2)c1ccc2nsnc2c1	0.0	/
Cc1ccccc1OCCn1cc(/C(N)=N/O)c2ccccc21	0.3	/
CCCNc1nc(-c2ccccc2)cs1	1.4	-0.229
CN(Cc1cnc2nc(N)nc(N)c2n1)c1ccc(C(=O)N[C@@H](CCC(=O)O)C(=O)O)cc1	-3.3	-0.347&-0.031
N#Cc1c(NC(=O)CN2CCCCC2)sc2c1CCC2	2.1	-1.47
Cc1cccc(-n2[nH]c(=S)sc2=S)c1	3.3	/
Cc1cc[n+](CC2OCc3ccccc3CO2)cc1	-0.7	/
CCCCN1C(=O)C(O)(CC(=O)c2ccc(C)cc2)c2ccccc21 (configuration not stated)	1.3	-0.423
Cc1ccc(C(C(=O)NCC2CCCO2)N(Cc2ccc3c(c2)OCO3)C(=O)c2ccc(-c3ccccc3)[nH]2)o1 (configuration not stated)	-0.2	0.838
CC1=C(C(=O)Nc2cccc(C(=O)N3CCN(c4ccc(F)cc4)CC3)c2)SCCO1	-0.9	0.923
O=C(CSc1ccncc1)N1CCN(S(=O)(=O)c2ccc3c(c2)CCC3)CC1	1.6	/
COc1ccc(N=c2oc3ccc(OC)cc3cc2C(N)=O)cc1	1.0	-0.643
COc1ccc(C(=O)c2ccc(F)cc2)cc1	-1.4	-0.202
COC(=O)c1ccc(CSc2nnc(CNC(=O)c3ccco3)o2)o1	1.8	0.146
COc1ccc(CN(CCN)C2CC(C)N(C)CC2C)cc1 (configuration not stated)	-1.4	0.121
c1ccc(-c2cc3ccccn3c2)cc1	/	0.659
CCOc1ccc2[nH]c(=O)c(CNCCCO)cc2c1	-0.7	-0.284
Cc1ccc(S(=O)(=O)Cc2nc(-c3ccc(C(=O)NC(C)C)cc3)oc2C)cc1	-0.1	-1.03
CC1CCN(Cc2c(C(=O)N/N=C/C=C/c3ccccc3)nnn2-c2nonc2N)CC1	4.2	0.702
CC(C)(C)NC(=O)NNc1nc2ccc(Cl)cc2s1	2.9	-0.579
CCc1ccccc1N(C)C(=O)CCn1cnc2onc(-c3ccc(F)cc3)c2c1=O	3.3	/
O=C(O)CSc1ccc2ccccc2c1	4.8	0.228
Cc1cc(C(=O)NNC2=NCCCCC2)n[nH]1	0.9	/
Cc1nc(C)c(CC(=O)O)c(=O)[nH]1	-0.1	0.327
N#Cc1c[nH]c2ccc(NC(=O)/C=C/c3ccc(OC(F)(F)F)cc3)cc12	-0.7	/
O=S(=O)(NCCc1c[nH]c2ccccc12)c1ccccc1	0.2	/
S=c1nc(-c2cccs2)[nH]n1CN1CCOCC1	0.6	/
COC(=O)c1nc(C(=O)OC)c(C(=O)OC)nc1C(=O)OC	-1.1	0.352
Cn1c(=O)c2c(nc(CN3CCN(c4ccc(F)cc4)CC3)n2CCN2CCOCC2)n(C)c1=O	-0.1	-0.56
Cc1nn(-c2ccccc2)c(C)c1CN(C)C(=O)CN1C(=O)COc2ccccc21	0.9	/
CN(C)C(=O)Cn1c(Cl)nc2c1c(=O)n(C)c(=O)n2C	1.8	/
COc1ccc(N2C(=O)c3ccccc3NC23CC2CC=CC23)cc1 (configuration not stated)	2.4	/
N#Cc1cc(C(=O)c2cc(F)ccc2O)cn(C2CC2)c1=O	1.1	/
O=C(c1ccc(F)c(F)c1)N1CCc2ccccc2C1	-2.8	0.837
Cc1csc(SC(C)C(=O)Nc2ccc(S(=O)(=O)N3CCCC3)cc2)n1 (configuration not stated)	-0.4	/
O=C(Cc1nc2ccccc2n1C(F)F)c1ccccc1	-2.8	/

Continued:
SMILES	BasE inh	LANA-nucl inh
COc1ccc2c(c1)C(C)(CC#N)C(=O)N2C (configuration not stated)	3.7	/
CCOC(=O)Nc1ccc2c(c1)N(CCCN(C)C)c1ccccc1CC2	-2.0	1.4
CNCc1nc2ccc(Cl)cc2[nH]1	0.3	0.235
NCCNCC1COC2(CCCCCCCCCCC2)O1 (configuration not stated)	-0.6	0.652
Cc1n[nH]c(C)c1NC(=O)CN(C)c1nc(-c2cccnc2)nc2ccccc12	1.5	/
CC(C)CN1C(=O)c2ccc(C(=O)Nc3ccc(F)cc3)cc2C1=O	1.6	-0.755

In the list so far, 14 have an aryl thioether with sulfur outside any ring.
SMILES	BasE inh	LANA-nucl inh
CSc1nc(COc2ccc(C(C)(C)C)cc2)nc(-n2cccc2)c1C#N	-4.2	/
NC(=O)CSc1nc2ccccc2s1	1.8	/
C=CCSc1nnc(NC(=O)Cc2coc3c(C)c(C)ccc23)s1	-1.0	-0.339
CSc1ccc(S(=O)(=O)N2CCOCC2)cc1	0.6	-1.39
CSc1ncc2c(=O)n(C(C)C)ccc2n1	-0.9	0.425
Cc1noc(C)c1CSc1ccccc1C(=O)Nc1ccccc1N1CCCC1	2.3	/
O=C(NCC(=O)c1cccs1)c1ccc(CSc2ccccc2)o1	3.5	-0.833
CCSc1nc2sc3c(c2c(=O)n1-c1ccc(OC)cc1)CC(C(C)C)OC3 (configuration not stated)	0.0	/
CCn1c(=O)cc(SCC(=O)NCCCN2CCOCC2)c2ccccc21	0.9	-0.393
Cc1ccc(NCc2nnc(SCC(=O)N3c4ccccc4CCc4ccccc43)o2)c(C)c1	1.1	-0.476
O=C(CSc1ccncc1)N1CCN(S(=O)(=O)c2ccc3c(c2)CCC3)CC1	1.6	/
COC(=O)c1ccc(CSc2nnc(CNC(=O)c3ccco3)o2)o1	1.8	0.146
O=C(O)CSc1ccc2ccccc2c1	4.8	0.228
Cc1csc(SC(C)C(=O)Nc2ccc(S(=O)(=O)N3CCCC3)cc2)n1 (configuration not stated)	-0.4	/

These rows are one share of the data, so the mix of outcomes need not match the whole.
